Screening results deposited in PubChem BioAssay by ICCB-Longwood Screening Facility, Harvard Medical School.
GIV Gai3 FP: inhibitors of GIV GBA-motif binding to rat Galpha-i3 | Galpha-i3/FITC-GIV peptide fluorescence polarization, 90 min; stronger effect = lower value; scaled: aluminum fluoride 0%, vehicle 100% | actives 0.42% (n = 210,000) | percent of control (FP), % (concentration not given with the values) | AID 1224905;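 active means replicate mean at 85% of control or lower, very high polarization wells dropped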;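 further: wells of about 15 µL received 100 nL stock; the first replicate is given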
Target sequence (P08753 whole entry, looked up): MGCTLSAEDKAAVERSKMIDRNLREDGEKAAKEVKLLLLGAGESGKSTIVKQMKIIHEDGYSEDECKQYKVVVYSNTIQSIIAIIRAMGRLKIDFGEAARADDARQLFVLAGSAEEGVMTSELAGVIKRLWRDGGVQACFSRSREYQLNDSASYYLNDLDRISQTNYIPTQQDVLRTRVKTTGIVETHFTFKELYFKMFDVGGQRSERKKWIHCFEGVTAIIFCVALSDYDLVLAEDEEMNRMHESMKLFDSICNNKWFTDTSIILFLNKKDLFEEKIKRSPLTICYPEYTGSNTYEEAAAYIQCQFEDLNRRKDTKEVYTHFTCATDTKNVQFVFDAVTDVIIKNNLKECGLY
Sa growth 42C: blocks Staphylococcus aureus growth; S. aureus RN4220 growth, OD600, 20 h, 42 °C; stronger effect = lower value; relative growth, % (test concentration not listed); actives 0.53% (n = 170,000);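 active means growth at 42 °C up to 50% and 20 or more points under that at 30 °C, or under 10% at both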;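 further: 300 nL library stock went into each well; scaled to the means of positive and negative controls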
HCMV UL50-53 inh: disrupts HCMV UL50-UL53 complex binding. HTRF UL50-UL53 interaction, normalized percent inhibition. inhibition, % (concentration not given with the values). actives 0.15% (n = 190,000). AID 1918969;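 active means both replicates at 50% or more, plus weaker picks with an unusually low signal ratio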;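 further: stock transfer was 100 nL into about 20 µL; 0% = negative control wells and 100% = wells with untagged competitor protein; inactives centre near -12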
Sa growth 42C second temp: second read-out of Sa growth 42C, no call of its own (marks repeat the call); relative growth, %; measured here: growth at 30 °C;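 optical density after 20 h as mean of two plates; 100% = untreated growth and lower means inhibition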
* = called active by the depositor; . = no result given; & = joins results of further samples.

SMILES	GIV Gai3 FP	Sa growth 42C	Sa growth 42C second temp	HCMV UL50-53 inh
COC(=O)Cn1c(SCCOc2ccccc2OC)nc2ccccc21	104	99	91	4
COc1cc(/C=c2\sc3nc4ccccc4n3c2=O)ccc1OCCOc1cccc(C)c1	110	.	.	5
CCCS(=O)(=O)N1CCC2(CC1)CC(=O)c1ccccc1O2	97	90	94	1
Oc1c(C(c2ccccn2)N2CCN(c3ccc(F)cc3)CC2)cc(Cl)c2cccnc12 (stereo not drawn)	.	56	36	-38
COC(CN(C)C(=O)c1cc2c(Cl)nc3ccc(C)cc3c2s1)OC	116	79	84	.
COc1ccc(OCC(=O)Nc2ccc(O)c(-c3nc4ccccc4s3)c2)cc1	102	92	86	-28
CCOC(=O)CC1=CC(SC(CC)C(=O)N2CCc3ccccc32)=Nc2ccccc2N1 (stereo not drawn)	111	.	.	-4
NNC(=O)c1cccnc1Oc1ccccc1	109	104	101	-2
CCOc1cc2c(cc1OCC)C1C(C(=O)N3CCCC3)c3ccccc3C(=O)N1CC2 (stereo not drawn)	101	87	86	-19
CCCC(=O)NCCc1csc(-c2ccccc2)n1	97	.	.	-18
CN(C(=O)CCN1C(=O)C(C)(C)Nc2ccccc21)c1ccccc1	.	105	86	-16
COc1ccccc1N1CCN(S(=O)(=O)c2ccc(-c3ccno3)cc2OC)CC1	98	88	100	.
COc1ccc(NC(=O)C2CCC(CNS(=O)(=O)c3ccc(Br)s3)CC2)cc1OC (stereo not drawn)	102	106	84	-18
CCOc1ccccc1C1C(C(=O)Nc2ccccc2)=C(C)Nc2nc(-c3ccccc3)nn21 (stereo not drawn)	102	103	104	7
Cc1csc(NC(=O)c2cn(-c3ccc(-c4noc(C5CC5)n4)cc3)nc2C)n1	105	.	.	-38
Cc1nn(CC(=O)NCc2cccnc2)c(=O)c2nn(-c3ccccc3)c(C)c12	109	.	.	-11
O=C(Nc1ccc(C(F)(F)F)cc1)C1CCC(CNS(=O)(=O)c2cccc3nsnc23)CC1 (stereo not drawn)	102	94	90	-25
Cc1ccc(S(=O)(=O)N2CCOCC2)cc1	105	92	80	-14
C=CCNC(=O)c1ccc(C(F)(F)F)nc1C	111	119	96	-6
COC(=O)C(C)Sc1nnc(-c2ccc(Br)cc2)o1 (stereo not drawn)	103	102	83	.
Cc1nn(CCCC(=O)N2CCCCC2)c(=O)c2c1sc1ccccc12	99	72	77	-32
C=CCn1c(C(CC)CC(C)(C)O)n[nH]c1=S (stereo not drawn)	100&102	98&82	82&115	10
Cc1cccc(N2C(=O)NC3CC2(C)Oc2ccccc23)c1 (stereo not drawn)	98	102	94	.
CCc1cc2c(=O)c(-c3nc(C)cs3)c(C(=O)O)oc2cc1O	109	95	94	-8
COCc1cc(C)nc2sc(C(=O)Nc3ccc(OC(F)(F)F)cc3)c(N)c12	96	99	100	-4
O=C(Nc1ccc(F)cc1F)NN1CCOCC1	104	99	98	1
Cc1ccc(CNC(=O)C2CCN(S(=O)(=O)c3ccc4[nH]c(=O)ccc4c3)CC2)cc1	99	117	92	.
c1ccc(CCNc2nsc3ccccc23)cc1	.	99	78	-21
COc1ccc(C2CC(=O)c3cc(-c4nc(-c5ccc(Cl)cc5)c(C)s4)c(=O)[nH]c3C2)cc1 (stereo not drawn)	125	93	89	-8
COc1ccc(Oc2nc(N3CCCC3)c(Cl)c3c2N(CC2CCCO2)CCS3(=O)=O)cc1 (stereo not drawn)	98	.	.	-20
CCN(CC)c1ccc(NC(=O)CCc2nc3cccnc3n2Cc2cccs2)c(C)c1	112	96	85	-8
Nc1ccccc1SC1CC(=O)N(c2ccc3c(c2)OCO3)C1=O (stereo not drawn)	114	78	91	-6
Cc1cc(C)nc(NNC(=S)Nc2ccccc2C)n1	.	94	90	5
COc1cccc(-c2cc(N)n(S(=O)(=O)c3ccc(C)cc3)n2)c1	109	.	.	-5
CCOc1ccc(N(C)C(=O)CCc2nnc3ccc(N4CCCC4)nn23)cc1	106	97	88	-14
CN(CC(N)=O)S(=O)(=O)c1ccc2ccccc2c1	101	101	97	-12
CCN1C(=O)c2ccccc2Sc2ccc(NC(=O)Nc3cc(C)cc(C)c3)cc21	103	104	76	-6
O=C(Nc1ccc(Cl)cc1)C(=S)N1CCOCC1	105	134	98	-1
CC1CN(c2ccccc2)C(=O)CS1 (stereo not drawn)	108	100	101	8
O=C(O)c1ccccc1S(=O)(=O)CC(=O)N1CCCCC1	103	91	80	-10
O=C(c1ccccc1)c1ccc2nc(N3CCCC3)c3nncn3c2c1	103	104	69	-20
CC(Oc1ccccc1)C(=O)NC1CCSC1=O (stereo not drawn)	105	121	104	.
Cc1ccc(-c2n[nH]c(=S)c3ccccc23)cc1S(=O)(=O)N1CCN(C)CC1	101	113	82	-60
COc1ccccc1OC(=O)c1ccc(SC)cc1OC	.	101	92	-26
Cc1ccc(S(=O)(=O)c2nnn3c2nc(NC2CCCCC2)c2sccc23)cc1	105	103	94	.
COCCn1c(=S)[nH]c2ccccc2c1=O	98&100	101&107	96&109	-14&12
CCOc1ccc(CNC(=O)CN2C(=O)CSc3ccc(S(=O)(=O)N4CCOCC4)cc32)cc1OC	103	124	84	.
O=C(CCNC(=O)c1ccco1)NC1CCCCCC1	.	93	91	-7
CN(Cc1ccco1)C(=O)/C=C/c1cn(Cc2ccccc2)nc1-c1ccccc1	.	83	75	-20
CCCOC(=O)c1ccc(NC(=O)C2=Cc3cc(C)ccc3OC=C2)cc1	104	.	.	-14
Cc1nn(-c2ccc(Cl)cc2)c2sc(C(=O)OCC(=O)N3CCNC3=O)cc12	.	94	92	-12
Cc1nc(Nc2nc(-c3ccc(F)cc3)cc(=O)[nH]2)nc2ccccc12	92	.	.	-20
O=C(COC(=O)C1(c2ccc(Cl)cc2)CCCC1)NC1CC1	.	109	99	10
O=C1CC(c2ccccc2)CC2=C1C(c1cccc(O)c1)Nc1ccc(C(=O)c3ccccc3)cc1N2 (stereo not drawn)	102	.	.	-9
Cc1cc(C)c(NC(=O)C(C)Oc2cc(C(F)(F)F)c3c(C)nn(C)c3n2)c(C)c1 (stereo not drawn)	103	.	.	-7
Cc1ccc(N(Cc2nc3nc(C)cc(=O)n3[nH]2)C(=O)C2CCCCC2)cc1	100	.	.	-36
Cc1ccc(C)c(Cn2nnc(C(=O)NCc3ccc(Cl)cc3Cl)c2N)c1	102	105	90	-17
NCCNc1ncnc2scc(-c3ccccc3)c12	98	84	85	.
CC1(C)CC2CC(C)(CN2C(=O)COC(=O)c2ccc3c(c2)S(=O)(=O)N=C2CCCCCN23)C1 (stereo not drawn)	.	95	96	-9
Cc1ccc(-n2nnnc2CNC(=O)c2ccccc2S(C)(=O)=O)cc1C	98	101	90	.

An excerpt from above in order of their number in Sa growth 42C second temp, rising.
SMILES	GIV Gai3 FP	Sa growth 42C	Sa growth 42C second temp
NCCNc1ncnc2scc(-c3ccccc3)c12	98	84	85
Cc1nn(-c2ccc(Cl)cc2)c2sc(C(=O)OCC(=O)N3CCNC3=O)cc12	.	94	92
CC1(C)CC2CC(C)(CN2C(=O)COC(=O)c2ccc3c(c2)S(=O)(=O)N=C2CCCCCN23)C1 (stereo not drawn)	.	95	96

Remaining list, next part:
SMILES	GIV Gai3 FP	Sa growth 42C	Sa growth 42C second temp	HCMV UL50-53 inh
Cc1ccc(NC(=O)c2sc3ncnc(N4CCN(C)CC4)c3c2C)cc1F	111	.	.	-16
COc1cc2nc(SCC#N)n3nc(CCn4c(C)nc5ccccc54)nc3c2cc1OC	95	123	96	1
CSc1ccc(CNC(=O)c2ccc3c(c2)N(C)C(=O)C2CCCCN32)cc1 (stereo not drawn)	98	87	86	.
Clc1ccccc1CN1COc2cc3c(cc2C1)OCO3	107	83	79	.
CC1=C(C#N)C(=O)NC(=O)/C1=C\c1ccc(-c2ccccc2)o1	94&99	91&105	69&63	-22
CC(O)CN(N)C1=NS(=O)(=O)c2ccccc21 (stereo not drawn)	102	71	90	2
O=C(CN1C(=O)C2CCCC2=Nc2ccccc21)Nc1cccc(Br)c1 (stereo not drawn)	104	.	.	5
CCC(C(=O)NCc1ccccc1Cl)N1C(=O)CCCc2ccccc21 (stereo not drawn)	110	.	.	-14
C=CCNC(=S)Nc1sc2c(c1C(=O)OCC)CCCCC2	101	79	32	.
Cc1ccc(-c2csc(COC(=O)C(C)(C)C)n2)cc1	110	85	100	-15
COC(=O)CNC(=O)c1ccc(OC)cc1	106	99	101	-9
CCN1C(=Nc2ccc(O)cc2)SC/C1=C\C(=O)OC	107	124	86	25

In a second layout: results already given.
Values in the order: GIV Gai3 FP, Sa growth 42C, Sa growth 42C second temp, HCMV UL50-53 inh
Cc1cc(C)c(NC(=O)C(C)Oc2cc(C(F)(F)F)c3c(C)nn(C)c3n2)c(C)c1 (stereo not drawn)
→ 103, ., ., -7
Cc1ccc(N(Cc2nc3nc(C)cc(=O)n3[nH]2)C(=O)C2CCCCC2)cc1
→ 100, ., ., -36
Cc1ccc(C)c(Cn2nnc(C(=O)NCc3ccc(Cl)cc3Cl)c2N)c1
→ 102, 105, 90, -17
NCCNc1ncnc2scc(-c3ccccc3)c12
→ 98, 84, 85, .
CC1(C)CC2CC(C)(CN2C(=O)COC(=O)c2ccc3c(c2)S(=O)(=O)N=C2CCCCCN23)C1 (stereo not drawn)
→ ., 95, 96, -9
Cc1ccc(-n2nnnc2CNC(=O)c2ccccc2S(C)(=O)=O)cc1C
→ 98, 101, 90, .
Cc1ccc(NC(=O)c2sc3ncnc(N4CCN(C)CC4)c3c2C)cc1F
→ 111, ., ., -16
COc1cc2nc(SCC#N)n3nc(CCn4c(C)nc5ccccc54)nc3c2cc1OC
→ 95, 123, 96, 1
CSc1ccc(CNC(=O)c2ccc3c(c2)N(C)C(=O)C2CCCCN32)cc1 (stereo not drawn)
→ 98, 87, 86, .
Clc1ccccc1CN1COc2cc3c(cc2C1)OCO3
→ 107, 83, 79, .
CC1=C(C#N)C(=O)NC(=O)/C1=C\c1ccc(-c2ccccc2)o1
→ 94&99, 91&105, 69&63, -22
CC(O)CN(N)C1=NS(=O)(=O)c2ccccc21 (stereo not drawn)
→ 102, 71, 90, 2
O=C(CN1C(=O)C2CCCC2=Nc2ccccc21)Nc1cccc(Br)c1 (stereo not drawn)
→ 104, ., ., 5
CCC(C(=O)NCc1ccccc1Cl)N1C(=O)CCCc2ccccc21 (stereo not drawn)
→ 110, ., ., -14
C=CCNC(=S)Nc1sc2c(c1C(=O)OCC)CCCCC2
→ 101, 79, 32, .
Cc1ccc(-c2csc(COC(=O)C(C)(C)C)n2)cc1
→ 110, 85, 100, -15
COC(=O)CNC(=O)c1ccc(OC)cc1
→ 106, 99, 101, -9
CCN1C(=Nc2ccc(O)cc2)SC/C1=C\C(=O)OC
→ 107, 124, 86, 25

(list continues)
SMILES	GIV Gai3 FP	Sa growth 42C	Sa growth 42C second temp	HCMV UL50-53 inh
O=C(/C=C/c1ccc2c(c1)OCO2)N1CCN(c2n[nH]c(=O)[nH]c2=O)CC1	.	83	84	-42
COCCCNC(=O)c1cnc2sc(N3CCCCC3)nn2c1=O	97	105	84	.
COc1cc2c(cc1OC)C1=C(C#N)CC/C(=N\S(=O)(=O)c3ccccc3)N1CC2	116	114	92	-45
Cn1c(=O)[nH]c2cc(-c3noc(-c4cccc(Cl)c4)n3)ccc21	102&96	96	81	.
Cc1ccn(-c2ccc(NC(=O)C3CC3)cc2)n1	105	90	85	-34
Cc1nnc(NC(=O)c2ccccc2)s1	107	93	88	-37
COc1ccc(-n2c(C)cc(C(=O)COC(=O)c3nccnc3N)c2C)cc1	.	133	89	-42
O=C(COC(=O)c1ccc(N2C(=O)c3ccccc3C2=O)cc1)c1ccccc1	.	87	98	0
CC1CCN(CNC(=O)c2cc3ccccc3o2)CC1	.	90	87	-47
COC(=O)CCn1cnc2onc(-c3cc(F)cc(F)c3)c2c1=O	71*	98	83	-37
O=C(Nc1cccc(O)c1)c1noc2c1CCc1ccccc1-2	99	108	91	-13
COc1ccc(CNC(=O)c2ccc(Br)o2)cc1	105	99	93	5
C=CCN(C(=O)CSc1nc2c(sc3ccccc32)c(=O)n1Cc1cccnc1)c1ccccc1	99	123	81	.
